Compound activity: PubChem BioAssay, National Center for Advancing Translational Sciences (NCATS)
GLA inh pH 4.5: inhibitors of human alpha-galactosidase A at pH 4.5; P06280; purified enzyme, 4-MU-alpha-Gal fluorescence, pH 4.5; activity change, negative = inhibition, % at 105 µM; 230,000 tested, under 10 active; inconclusive = small, poorly fitted or top-dose-only inhibition, or a rising curve; inactive = flat fitted curve, though single readings scatter; no compound was filed as active;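 further: 0% = full activity with enzyme and -100% = basal without enzyme; dose as in the result columns while the protocol names 77 µM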
miR-21 FLuc: miR-21 reporter, rising signal. HeLa miR-21 FLuc reporter, luciferase, 48 h. 340,000 tested, under 10 active. Potency, µM (titrated, usually from 38.3 µM), inactives show at the highest dose reporter change, positive = more light. AID 2288; active = well fitted rising curve with a large enough effect; inconclusive = small, poorly fitted or top-dose-only effect; inactive = no such curve, though single readings can be large or run the other way;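 further: % of control where 0% means no effect; miR-21 action dims this reporter so a rising signal means less miR-21 action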
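Using DMEM plus 10% FBS, HeLa miR-21-FLuc cells are incubated with test compounds (final up to about 40uM) for 48 hours; firefly luciferase signal is then imaged following reagent-mediated lysis.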
Rango-impB inh: prevents formation of the Rango-importin beta complex; Q14974; Rango CFP/YFP FRET sensor + importin beta, 45 min; Potency, µM (titrated, usually from 92.2 µM), inactives show at the top dose inhibition of complex formation; actives 0.031% (n = 340,000); AID 540263; active = rising FRET ratio curve, often small or poorly fitted; inconclusive = mostly compound fluorescence or quenching in the first reads; inactive = flat curves in all reads;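 further: potency means the concentration at half of the fitted maximal effect; 0% = DMSO wells and 100% = buffer wells lacking importin beta; nearly all actives have a fitted effect of over 15% in size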
Target sequence (Q14974 whole entry, looked up): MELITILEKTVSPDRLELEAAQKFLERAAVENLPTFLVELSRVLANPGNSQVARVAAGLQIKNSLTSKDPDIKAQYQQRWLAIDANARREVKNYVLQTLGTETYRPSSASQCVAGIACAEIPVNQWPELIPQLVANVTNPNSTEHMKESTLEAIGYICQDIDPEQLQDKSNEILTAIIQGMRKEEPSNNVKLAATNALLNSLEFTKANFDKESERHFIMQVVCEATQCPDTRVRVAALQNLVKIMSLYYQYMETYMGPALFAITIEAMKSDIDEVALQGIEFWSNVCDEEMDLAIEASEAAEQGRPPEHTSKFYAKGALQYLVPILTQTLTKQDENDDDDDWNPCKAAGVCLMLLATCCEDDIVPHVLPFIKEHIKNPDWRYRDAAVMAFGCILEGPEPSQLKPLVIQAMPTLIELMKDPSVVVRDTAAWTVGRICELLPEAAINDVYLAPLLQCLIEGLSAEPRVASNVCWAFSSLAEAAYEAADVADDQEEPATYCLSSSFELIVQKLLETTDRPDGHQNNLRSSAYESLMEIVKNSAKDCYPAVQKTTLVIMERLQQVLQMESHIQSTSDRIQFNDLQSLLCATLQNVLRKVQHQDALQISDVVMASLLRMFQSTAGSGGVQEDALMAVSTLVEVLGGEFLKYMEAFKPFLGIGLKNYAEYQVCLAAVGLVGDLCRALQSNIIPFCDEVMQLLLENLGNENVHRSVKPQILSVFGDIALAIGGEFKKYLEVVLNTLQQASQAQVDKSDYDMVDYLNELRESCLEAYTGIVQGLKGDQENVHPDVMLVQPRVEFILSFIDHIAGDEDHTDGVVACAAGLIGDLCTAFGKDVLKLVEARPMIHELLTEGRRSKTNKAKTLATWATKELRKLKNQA
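Inhibition scored from the CFP 486 nm/YFP 530 nm FRET ratio 45 min after adding 0.125 microM importin beta to 50 nM Rango biosensor preincubated 5 min with compound (room temperature, PBS with DTT, Tween-20, BSA). No-importin wells as positive control.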
Rango dissoc inh: prevents RanGTP from dissociating the Rango-importin beta complex | Potency, µM (doses to about 46.1 µM), inactives show at the highest dose activity change, negative = inhibition | actives 0.071% (n = 340,000) | Biochemical FRET Rango-importin beta, RanGTP-induced dissociation | AID 540253; active means falling FRET ratio curve, often poorly fitted, with flat reads before Ran was added; inconclusive means other falling curves, or compound fluorescence or quenching; inactive means flat or rising ratio curve;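 further: potency means the concentration at half of the fitted maximal effect; % of control where 0% means no effect; nearly all actives have a fitted effect of over 45% in size; -100% = wells without RanGTP and RCC1; the record marks most hits as doubtful in a second field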
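Two FRET readings bracket the reaction: one 5 min after compound meets Rango–importin beta, another 45 min after RanGTP-RCC1 (0.6 uM Ran, 0.2 uM RCC1, 2 mM GTP) is added. Only the second defines inhibition.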
Active calls of the source: *; ? = inconclusive; . = not tested or not shown. These rows are one share of the data (hit frequency here may not be typical).

SMILES	GLA inh pH 4.5	miR-21 FLuc	Rango-impB inh	Rango dissoc inh
Cn1c(SCC(=O)Nc2ccc3cn[nH]c3c2)nnc1-c1cccs1	3	0%	0.2%	1%
Cc1ccc(CNC(=O)C2CCN(S(=O)(=O)c3c(C)noc3/C=C/c3ccco3)CC2)cc1	3	0%	0.4%	-6%
COc1cccc(C2C(C#N)=C(N)Oc3cc(C)n(Cc4ccco4)c(=O)c32)c1 (centres undefined)	6	-4%	-0.4%	0%
c1cc2nc(C34CC5CC(CC(C5)C3)C4)[nH]c2cn1	-6	-7%	8.4%	-15%
Brc1ccc(-c2noc(CCc3ccccc3)n2)o1	-3	-41%	-1.7%	-17%
CCOC(=O)c1ccc(-c2ccc(C(=O)Nc3cccnc3)o2)cc1	-11	1%	-1.3%	16%
O=C1C(Cl)=C(NCCCO)C(=O)c2ccccc21	-11	13%	-0.5%	10%
CC1(C)O[C@H]2OC([C@H](O)CON3C(=O)c4ccccc4C3=O)[C@H](O)[C@H]2O1 (some centres undefined)	-5	0%	-2.0%	-2%
CCC(C(=O)Nc1ccc(C(=O)O)cc1NC(=O)C(CC)c1ccccc1)c1ccccc1 (centres undefined)	.	-1%	3.3%	17%
Fc1ccc(CSc2nnc(-c3ccco3)o2)cc1	2	-55%	2.9%	6%
O=C(CNC(=O)Cc1ccccc1)NCC(=O)OCC(=O)c1cccc2ccccc12	-23	-3%	4.5%	4%
CCOc1cccc(-c2c(C(=O)N/N=C/c3c(F)cccc3Cl)nnn2-c2nonc2N)c1	.	0%	1.2%	1%
O=C(CSc1ccccc1)Nc1nccs1	8	-28%	-0.9%	6%
COCCNC(=O)c1ccc2c(c1)NC(=O)CS2	-7	4%	-1.2%	21%
COc1ccc(-c2cc(C(=O)NCCCN3CCOCC3)on2)cc1OC	.	-1%	0.2%	-11%
NS(=O)(=O)c1ccc(NC(=S)Nc2ccc(C(=O)N3CCCCC3)cc2)cc1	-5	1%	-3.8%	4%
COc1ccc(OC)c(N2C(=O)c3cccnc3C2=O)c1	.	1%	0.4%	-1%
CC(=O)Oc1ccc(/C=C(\NC(=O)c2cccc(Br)c2)C(=O)Nc2ccc(C(=O)O)cc2)cc1	.	.	0.1%	16%
CN(C)/C=N/c1c(C#N)cnn1C	-21	5%	-2.8%	18%
Cc1onc(-c2ccccc2)c1C(=O)Nc1ccccc1NC(=O)c1c(-c2ccccc2)noc1C	.	-3%	7.4%	7%
Cc1oc(-c2ccccc2F)nc1CS(=O)(=O)CC(=O)NC1CCCC1	2	-9%	-0.2%	8%
CCOC(=O)c1ccc(N2CCN(C(C)=O)CC2)c(NC(=O)c2cccnc2)c1	6	-1%	1.1%	8%
c1ccc(-c2nnsc2-c2ncc[nH]2)cc1	3	0%	-0.2%	-2%
CCOC(=O)C1=C(C)NC(=S)NC1c1ccco1 (centres undefined)	3	4%	?	?
CCOc1ccc(CCNS(=O)(=O)c2ccc3c(c2)N(C(C)=O)CCO3)cc1OCC	.	-7%	0.4%	9%
SMILES	GLA inh pH 4.5	miR-21 FLuc	Rango-impB inh	Rango dissoc inh
Cc1ccc(-c2nc(CS(=O)(=O)CC(=O)NCc3cccc(F)c3)c(C)o2)cc1	.	-3%	-3.0%	1%
COc1ccccc1CC(=O)N1CCC(n2nccc2NC(=O)C2CCOC2)CC1 (centres undefined)	.	-2%	0.3%	-15%
Cc1ccc(-c2nc(CN(C)Cc3cccc4cnccc34)c(C)o2)s1	-3	-2%	-2.7%	11%
N#Cc1c(-c2ccncc2)cc(-c2ccc(F)cc2)nc1N	.	-7%	?	2%
O=C1c2ccccc2NC(c2cccs2)N1O (centres undefined)	.	.	-2.4%	32%
COc1ccc(NS(=O)(=O)c2cccc(C(=O)NCC3CCCO3)c2)cc1 (centres undefined)	.	.	3.6%	-6%
O=C(CSc1nnc(-c2ccncc2)o1)N1CCCCCC1	11	-13%	0.4%	0%
Cc1ccc(S(=O)(=O)CCC(=O)OCC(=O)NC(C)c2ccccc2)cc1 (centres undefined)	.	.	1.3%	3%
COc1ccc(C2C(C(=O)c3ccc(C)o3)=C(O)C(=O)N2Cc2cccnc2)cc1OC (centres undefined)	.	1%	0.5%	1%
N/C(=N\OC(=O)Cc1cccs1)c1ccc(Br)cc1	-5	-62%	-3.3%	0%
COc1ccc(S(=O)(=O)Nc2c(NC3CCCCC3)c3ccccc3oc2=O)cc1OC	.	9%	3.8%	12%
CCCn1c(N)c(Sc2ccc(Cl)cc2)c(=O)n(CCC)c1=O	-4	9%	0.8%	-15%
O=C(NCc1cccnc1)C1CC(c2ccccc2Cl)=NO1 (centres undefined)	.	2%	-0.8%	0%
CCOc1ccc(NC(=O)CCCc2cc(-c3ccc(OCC)cc3)on2)cc1	7	-2%	-0.6%	-6%
O=C(O)C1CCN(S(=O)(=O)c2cccc3nsnc23)CC1	.	-4%	-1.6%	-4%
COCCOC(=O)c1c(C)n(C)c2ccc(OC(=O)C3CC3)cc12	-2	-19%	0.3%	1%
COc1ccc(NC(=O)c2cc(Br)ccc2Cl)c(OC)c1	-5	-16%	3.7%	-1%
O=C(CCN1C(=O)C2C3CCC(C3)C2C1=O)OCC(=O)c1ccc(Br)cc1 (centres undefined)	.	-1%	0.0%	1%
Cc1cc(Br)ccc1NCc1ccccn1	-7	-26%	-0.4%	-3%
O=C(NCc1cccnc1)C(=O)NCC1CCCO1 (centres undefined)	1	?	3.7%	1%
Cc1cc(C)c2c(=O)c(C#N)coc2c1	-1	-20%	12%	-1%
COc1ccc(NC(=O)CN(C2CCCCC2)S(C)(=O)=O)cc1OC	2	-3%	-2.0%	9%
CCC1=NN(C(=O)C(=O)Nc2ccc(Br)cc2)C(O)(C(F)(F)F)C1 (centres undefined)	2	5%	-3.4%	-7%
O=c1c2c(nc3n1CCS3)c1cc(F)ccc1n2Cc1cc(=O)n2cc(Cl)ccc2n1	7	5%	-2.2%	-12%
CCCc1c(OCCCOc2ccc(OCC(=O)O)cc2)ccc(C(C)=O)c1O	-13	.	2.8%	1%

Sorted by molar mass (low to high): part of the list above.
SMILES	GLA inh pH 4.5	miR-21 FLuc	Rango-impB inh	Rango dissoc inh
CN(C)/C=N/c1c(C#N)cnn1C	-21	5%	-2.8%	18%
O=C1c2ccccc2NC(c2cccs2)N1O (centres undefined)	.	.	-2.4%	32%
O=C(NCc1cccnc1)C(=O)NCC1CCCO1 (centres undefined)	1	?	3.7%	1%
O=C(NCc1cccnc1)C1CC(c2ccccc2Cl)=NO1 (centres undefined)	.	2%	-0.8%	0%
N/C(=N\OC(=O)Cc1cccs1)c1ccc(Br)cc1	-5	-62%	-3.3%	0%
CCC1=NN(C(=O)C(=O)Nc2ccc(Br)cc2)C(O)(C(F)(F)F)C1 (centres undefined)	2	5%	-3.4%	-7%
CC(=O)Oc1ccc(/C=C(\NC(=O)c2cccc(Br)c2)C(=O)Nc2ccc(C(=O)O)cc2)cc1	.	.	0.1%	16%

The list goes on.
SMILES	GLA inh pH 4.5	miR-21 FLuc	Rango-impB inh	Rango dissoc inh
CCCCOc1ccc(C(C)NC(=O)CCS(=O)(=O)Cc2ccccc2Cl)cc1 (centres undefined)	-10	-5%	-2.1%	-10%
CC(=O)C1=C(C)N(Cc2ccccc2)C(=O)N[C@H]1c1cccc(F)c1	3	.	4.3%	16%
O=C(c1ccc(Br)o1)N1CCN(CCOc2ccccc2)CC1	.	-5%	1.8%	-1%
CCCCn1c(SCC(=O)NCc2ccco2)nc2ccc(N3CCOCC3)cc2c1=O	2	-10%	?	-11%
O=CN1CCN(C(C(=O)NC2CCCCC2)c2cc3c(cc2[N+](=O)[O-])OCO3)CC1 (centres undefined)	-2	-10%	0.5%	-4%
COc1cccc(C(=O)NCC2CCCN2S(=O)(=O)c2cccs2)c1 (centres undefined)	.	.	-0.7%	4%
Cc1ccccc1N1C(S)=C(C#N)C(=O)NC1c1cccs1 (centres undefined)	-5	2%	0.1%	-7%
O=C(Nc1ccc2ccccc2c1)C(c1ccccc1)C1CCCC1 (centres undefined)	-10	17%	6.6%	-17%
COc1ccc(/C=C/C(=O)c2ccc3c4c(cccc24)CC3)cc1	1	-3%	?	-7%
Cc1cccc(-n2c(O)cnc2Nc2nc(C)cc(C)n2)c1	-4	0%	1.7%	28%
CCOc1ccc(NC(=O)CN2CCN(CC(=O)c3ccc(OCC)cc3)CC2)cc1	-10	-2%	5.9%	-4%
COc1ccc(NC(=S)N(CCCN2CCC(C)CC2)Cc2cccs2)cc1Cl	8	-2%	-0.9%	1%
Cc1ccc(Cn2nnc3c(=O)[nH]c(C4CCN(S(=O)(=O)/C=C/c5ccccc5)CC4)nc32)cc1	.	6%	-2.6%	-13%
Cc1cc(C)n(-c2nc(-c3ccc(Cl)c(Cl)c3)cs2)n1	11	-5%	3.8%	1%
CCn1c(CSc2nc(C)cc(C)n2)nnc1SCC(=O)Nc1nc(-c2ccccc2)cs1	1	0%	5.5%	-20%
Cc1ccccc1OCC(=O)NC(=S)Nc1ccc(S(=O)(=O)NC2CCCCC2)cc1	2	-1%	-2.2%	21%
Cn1c(NCC(O)c2ccccc2)nc2c1c(=O)n(Cc1ccc(Cl)c(Cl)c1)c(=O)n2C (centres undefined)	.	.	0.2%	-7%
Cc1ccc(-c2nn(CC(N)=O)c(=O)c3ccccc23)cc1S(=O)(=O)N(C)C	7	-2%	-1.0%	0%
O=C(CSc1nc2cc(Cl)ccc2s1)Nc1cccc(S(=O)(=O)N2CCOCC2)c1	-10	5%	0.1%	0%
Cc1noc(NS(=O)(=O)c2ccc(NC(=O)NC(C)(C(F)(F)F)C(F)(F)F)cc2)c1C	.	-2%	-1.2%	-14%
Cc1ccc(CNC(=O)C2CCN(S(=O)(=O)c3ccc4c(c3)CC(C)N4C(=O)C3CCC3)CC2)o1 (centres undefined)	.	24%	-1.2%	4%
CC(=O)N1CCN(c2ccc(NC(=O)c3ccccc3Br)cc2Cl)CC1	-2	-9%	-0.6%	13%
CC(CN1CCCCC1)OC(=O)c1cc2ccccc2o1 (centres undefined)	2	-2%	-0.2%	-13%
O=C(NNc1nc(-c2ccccc2)c2cc(Br)ccc2n1)c1ccc(S(=O)(=O)N2CCCCC2)cc1	-9	0%	-0.4%	-18%
CC1(c2ccccc2)NC(=O)N(CC(=O)Nc2ccc3c(c2)OCO3)C1=O (centres undefined)	-4	-4%	1.1%	2%
SMILES	GLA inh pH 4.5	miR-21 FLuc	Rango-impB inh	Rango dissoc inh
CC(C)(C)NC(=O)Cc1ccc(S(=O)(=O)N2CCCC2)s1	-1	-4%	-4.0%	-3%
O=S(=O)(NCC1CCN(Cc2ccccc2)CC1)c1ccccc1C(F)(F)F	.	-1%	-0.5%	14%
CC(=O)Nc1cccc(-c2nc3ccccc3s2)c1C	8	-11%	1.8%	-26%
O=C(c1ccccn1)N1CCN(S(=O)(=O)c2ccccc2)CC1	-23	-2%	4.7%	0%
Cc1ccc(N2C(=O)N(CC(=O)Nc3ccc([N+](=O)[O-])cc3)C(=O)C2C)cc1 (centres undefined)	.	-7%	4.5%	23%
COc1cc(C(C)=O)ccc1Oc1ncnc2c1cnn2-c1ccc(F)cc1	2	-72%	-5.6%	0%
CCN(CC)C(=O)CS(=O)(=O)CC(=O)Nc1cc(OCCOC)c(Cl)cc1Cl	-18	0%	-1.6%	1%
O=C(CN1C(=O)C2CC=CCC2C1=O)Nc1cc(C(F)(F)F)ccc1N1CCCC1 (centres undefined)	.	.	-5.0%	-2%
CC1(C)C2CCC(C2)C1(C)NC(=O)CN1CCN(Cc2ccccc2)CC1 (centres undefined)	0	-10%	-1.2%	10%
CC(C)(C)OC(=O)C[C@H]1C/C=C\C[C@H](CC(=O)N(CCO)Cc2ccccc2)C(=O)N[C@H](C(C)(C)C)COC1=O	.	.	-7.2%	-8%
CCc1ccccc1N(CC(=O)N/N=C/c1ccc(OC(=O)OC)c(OC)c1)S(C)(=O)=O	-1	-1%	-0.2%	15%
Cc1cccc(N2NC(=O)/C(=C/c3ccc(-c4ccc(Cl)c(C(=O)O)c4)o3)C2=O)c1	0	6%	-2.3%	-1%
Cc1c(-c2ccccc2)c(=O)oc2ccc(O)cc12	.	-16%	1.6%	1%
Nc1nc(-c2ccc(S(=O)(=O)N3CCCCC3)cc2)cs1	.	.	0.0%	-4%
